# High-throughput results deposited in PubChem by Fisher Drug Discovery Resource Center.
# NPYLR7 agonist: agonists of mosquito NPYLR7 receptor, primary screen, cell-based, Aedes aegypti, calcium fluorescence, mosquito biting behavior | Aedes aegypti neuropeptide Y-like receptor 7 (NPYLR7) | HEK293T NPYLR7/Galpha15, GCaMP6s calcium fluorescence | activation, % at 10 µM | 0.15% of 270,000 active; in the data active = activation above about 40%;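 also: 0% = vehicle and 100% = reference agonist at the receptor; some compounds past the cut are filed as inactive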
# NPYLR7 agonist max-min: further read-out of NPYLR7 agonist, marked with its call; activation, %; measured here: Max-Min RFU normalised activation; some inactives read as strong as hits;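 span of the calcium signal over five minutes; 0% = vehicle and 100% = native peptide agonist; compound fluorescence can raise it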
# * hit, by the source's call; & = joins results of further samples. This is a subset, so the mix of outcomes need not match the whole.
# Every second line gives: NPYLR7 agonist | NPYLR7 agonist max-min
COc1ccccc1Cc1nc2c(c(=O)[nH]1)CN(C(=O)Nc1ccc(C(F)(F)F)cc1)CC2
    -13 | -21
CCC(C(=O)N1CCN(c2cc(Oc3ccccc3OC)ncn2)CC1C)c1ccccc1 (stereo unspecified)
    3 | 1
CN1CCCN(C(=O)c2cc(CN(C)CCc3ccccc3)on2)CC1
    -1 | -2
NC1(CNC(=O)Cc2ccc(C(F)(F)F)cc2)CCCCCC1
    7 | 2
CCOc1ccc(-c2c(=O)n(OCc3ccccn3)c3ccccc3[n+]2[O-])cc1
    11 | 2
CCC(C)(C)NC(=O)c1cnc2c(cnn2C(C)C)c1
    1 | 0
CCCNC(=O)c1cc(NC(=O)Nc2ccccc2CC)ccc1N1CCCCC1
    -1 | 9
Cc1ccc(Cc2nc(N3CCCN(C(=O)Nc4ccc(Cl)cc4)CC3)c3c(C)nn(-c4ccccc4)c3n2)cc1
    7 | 9
Cc1nc2c(c(N(C)C)n1)CCN(C(=O)c1ccc(N)nc1)C2
    4 | 2
Cc1ccc(OCC2CCCN(C(=O)c3c(O)cccc3O)C2)cc1 (stereo unspecified)
    18 | 1
CCN1C=C(Cc2ccccc2C)C2=C(C1)C(c1ccccc1C)C(C#N)C(=N)O2 (stereo unspecified)
    0 | -3
CNc1nnc(SCC(=O)NCCSc2ccccc2)s1
    2 | 1
Cc1cc(C)nc(Nc2nc(C(N)Cc3ccc(N)cc3)cs2)n1 (stereo unspecified)
    -3 | -8
CCCCSc1nnc2c(n1)OC(c1ccccc1OC)Nc1ccccc1-2 (stereo unspecified)
    -12 | -19
CC1(C)CC(=O)C2C(=Nc3ccccc3N(C(=O)Cc3ccc(Cl)cc3)C2c2ccc3c(c2)OCO3)C1 (stereo unspecified)
    -7 | -12
Cc1cncc(NC(=O)c2ccc(CN(C)Cc3noc(C)n3)cc2)c1
    9 | 22
COc1ccc(-c2cc(C(=O)N3CC4(C)CC3CC(C)(C)C4)n(-c3ccc(F)cc3)n2)cc1 (stereo unspecified)
    -3 | -3
COc1ccc(Cl)cc1C(=O)C1CCCN(Cc2cccc(C(C)=O)c2)C1 (stereo unspecified)
    7 | 4
Cc1cc(NC(=O)CC(C)C)n(-c2nc(-c3cccs3)cs2)n1
    -5 | -10
CCCn1c(=O)n(CCC(=O)N2CCCn3ncnc32)c2ccccc21
    0 | -2

# Part of the list above in order of molecular weight, lowest first:
# Every second line gives: NPYLR7 agonist | NPYLR7 agonist max-min
Cc1cc(C)nc(Nc2nc(C(N)Cc3ccc(N)cc3)cs2)n1 (stereo unspecified)
    -3 | -8
CCOc1ccc(-c2c(=O)n(OCc3ccccn3)c3ccccc3[n+]2[O-])cc1
    11 | 2
COc1ccc(-c2cc(C(=O)N3CC4(C)CC3CC(C)(C)C4)n(-c3ccc(F)cc3)n2)cc1 (stereo unspecified)
    -3 | -3

# Among those listed so far, 5 contain an aryl methoxy group:
# Every second line gives: NPYLR7 agonist | NPYLR7 agonist max-min
COc1ccccc1Cc1nc2c(c(=O)[nH]1)CN(C(=O)Nc1ccc(C(F)(F)F)cc1)CC2
    -13 | -21
CCC(C(=O)N1CCN(c2cc(Oc3ccccc3OC)ncn2)CC1C)c1ccccc1 (stereo unspecified)
    3 | 1
CCCCSc1nnc2c(n1)OC(c1ccccc1OC)Nc1ccccc1-2 (stereo unspecified)
    -12 | -19
COc1ccc(-c2cc(C(=O)N3CC4(C)CC3CC(C)(C)C4)n(-c3ccc(F)cc3)n2)cc1 (stereo unspecified)
    -3 | -3
COc1ccc(Cl)cc1C(=O)C1CCCN(Cc2cccc(C(C)=O)c2)C1 (stereo unspecified)
    7 | 4

# The list goes on.
# Every second line gives: NPYLR7 agonist | NPYLR7 agonist max-min
Cc1ccc(C23CC4CC(CC(C(=O)OCC#N)(C4)C2)C3)cc1C
    6 | 3
Cc1cccc2c1C(=O)NC1(CCN(S(=O)(=O)c3cccc4ccccc34)CC1)N2
    4 | 13
O=C(Nc1ccc2ccccc2n1)c1ccccc1Cl
    3 | 4
Cc1ccc(CN2C(=O)C3(SCCN3C(=O)C3CCC3)c3cc(C)ccc32)cc1 (stereo unspecified)
    10 | 14
CCN(CC)C(=O)c1csc([C@H]2C[C@H](O)[C@@H](CO)O2)n1
    -1 | -3
O=c1c2ccc(F)cc2ncn1CC(O)COc1c(Cl)cccc1Cl (stereo unspecified)
    -9 | -11
Cc1onc(-c2c(Cl)cccc2Cl)c1C(=O)N1CCc2ccccc2C1c1ccc(F)cc1 (stereo unspecified)
    22 | 10
CCC(C(=O)N(Cc1cc(NC(=O)C2CCCC2)ccc1N(C)C)CC1CCCO1)c1ccccc1 (stereo unspecified)
    -10 | -3
CC(=O)N1N=C(Cc2ccccc2)OC1C(=O)NC12CC3CC(CC(C3)C1)C2 (stereo unspecified)
    18 | 12
CC(OCC(F)(F)F)C(=O)Nc1cccc(S(=O)(=O)N(C)c2ccccc2)c1 (stereo unspecified)
    8 | 3
Cc1csc2nc(CNc3cccc(C#Cc4cccs4)c3)cc(=O)n12
    6 | 3
CC(O)=c1c(=O)nc2cccc3c2=c1c1ccccc1c3=O
    5 | 4
CCN1CCOc2ccc(NC(=O)c3cccc(C)c3)cc2C1=O
    10 | 2
c1ccc(CC23OC4C5C6CC(C7C6C4C72)C53)cc1 (stereo unspecified)
    2 | -1
Cc1c(C(=O)N(C)C2CCCC(C)C2)sc2nc(C(F)(F)F)ccc12 (stereo unspecified)
    2 | -1
COc1ccccc1NC(=O)Cc1nc2ccc(F)cc2c(=O)[nH]1
    3 | 3
COc1ccccc1COn1c(=O)c(-c2cccs2)[n+]([O-])c2ccccc21
    18 | 9
Cc1nn2c(-c3ccccc3Cl)cc(C(=O)O)nc2c1-c1ccccc1
    -6 | -1
Cc1cc(=O)[nH]c(-n2nc(-c3cccs3)cc2NC(=O)COc2ccc(F)cc2)n1
    -1 | 0
CCCCN(C=O)c1c(CC)nc2ccc(C(=O)N3CCNC(=O)C3)cn12
    0 | -8
O=C(NCC1CC1)[C@@]1(OCc2ccccc2)CC(OCc2ccc(C(F)(F)F)cc2)[C@H](O)[C@H](O)C1 (stereo partly specified)
    5 | 15
Cc1sc(N=Cc2ccc(C(C)(C)C)cc2)c(C#N)c1C
    -4 | 0
Cc1cc2ncn(-c3ccc([N+](=O)[O-])cc3[N+](=O)[O-])c2cc1C
    -1 | 19
COc1cc(C=C2C(=O)NC(=O)NC2=O)ccc1OCc1ccccc1
    7 | 6
COCC(=O)Nc1ccc(N2CCN(C(=O)c3cc(F)cc(F)c3F)CC2)nc1
    23 | 15
O=C(NC12CC3CC(CC(O)(C3)C1)C2)c1cc(CN2CCOCC2)on1
    13 | 4
O=[N+]([O-])c1ccccc1NCCNc1cccc2ccccc12
    5 | 3
COc1ccc(CCN(Cc2ccc(C)o2)C(=O)CN(CCN2CCOCC2)C(=O)C2CC2)cc1OC
    -3 | -5
COc1ccc(C(=O)N2CCSC23C(=O)N(Cc2cccc(OC)c2)c2ccc(C)cc23)cc1 (stereo unspecified)
    -7 | -1
CSc1nc2c(c(-c3ccc(O)cc3)c1C#N)CCC2
    -1 | -4
COc1ccc(NC(=O)C2(C)CCN2CC(C)C)cc1F (stereo unspecified)
    4 | 3
CN(CCSc1ccccc1)C(=O)c1cn2c(n1)CNCC2
    -4 | -9
Cc1cc(C(=O)NN)nn1C
    -6 | -14
CNc1ccc(-c2noc([C@@H]3CCCN3C(C)C)n2)cn1
    -6 | -18
Cc1c2c(=O)n(-c3ccccc3)[nH]c2cc(=O)n1Cc1ccccc1
    13 | 5
COc1cccc(Cc2nsc(N3CCCN(C(=O)Nc4cccc(OC)c4)CC3)n2)c1
    -11 | -15
CNC(=O)CC1C(=O)NCCN1Cc1cnn(-c2ccc(C)c(C)c2)c1 (stereo unspecified)
    19 | 12
CCCCCCc1ccc(C(=O)N(CCCOC)CC(=O)N(CCc2c[nH]c3ccccc23)Cc2ccc(F)cc2)cc1
    5 | 10
Cc1cc(=O)n2[nH]c(NC(=O)C3CCCCC3)nc2n1
    0 | -8
CN(Cc1ccco1)C(=O)CCN1C(=O)c2ccccc2C1=O
    19 | 11
CCOC(=O)C1(Cc2cccc(F)c2)CCN(Cc2ccccc2O)CC1
    -1 | 0
CCCC(=O)NCCNc1ccc(Nc2cc(C)ccn2)nn1
    12 | 3
COCCn1cc(C(=O)NCc2ccccc2Cl)c2nn(-c3ccccc3)c(=O)c-2c1
    3 | 4
Cc1noc(C)c1Cn1c(C)c(C(=O)NCc2ccc3c(c2)OCO3)sc1=O
    15 | 4
COc1cccc(C2Nc3ccccc3N=C3CC(c4ccc(OC)c(OC)c4)CC(=O)C32)c1 (stereo unspecified)
    2 | -2
Cc1ncoc1C(=O)N(CC1CCN(C2Cc3ccccc3C2)CC1)CC1CCCO1 (stereo unspecified)
    11 | 6
CCOC(=O)c1[nH]ncc1CN1CCCC(Nc2ccccc2)C1 (stereo unspecified)
    3 | -1
CC(CC(F)(F)F)C(=O)N1CCC(n2c(Cc3ccccc3)nc3ccccc32)CC1 (stereo unspecified)
    5 | 0
CCOC(=O)Cn1c2c(c3ccccc31)C[C@H]1C[C@@H]2[C@@H](OC)CN1C(=O)c1cnccn1
    31 | 29
CC(C)N(C(=O)c1ccc(-c2n[nH]c(C3CC3)n2)cc1)C1CCC1
    -24 | -21
CC1(C(=O)Nc2ccccc2)CCN1C(=O)C1(c2ccccc2)CC1 (stereo unspecified)
    3 | 1
CCOC(=O)CCC(=O)N(CCOC)CC(=O)N1CCc2sccc2C1c1ccc(Cl)cc1Cl (stereo unspecified)
    5 | 17
C=C(C)COc1cccc(C(=O)N(C)Cc2ncccc2C)c1
    18 | 5
COc1ccc(NS(=O)(=O)c2ccc(C)cc2C)c(Br)n1
    5 | 3
CCN=C1SC(CC(=O)Nc2sccc2C(=O)OC)C(=O)N1CC (stereo unspecified)
    11 | 11
C[C@@H]1CN(C2CCN(Cc3nc(C(c4ccccc4)c4ccccc4)no3)CC2)C[C@H](C)O1
    8 | -1
COC(=O)C1=C(C)N=c2s/c(=C\c3ccc(Cl)cc3Cl)c(=O)n2C1c1cccs1 (stereo unspecified)
    12 | 18
CCOC(=O)c1cc(-c2cccc(NC(=O)c3c(C)noc3C)c2)n(-c2ccccn2)n1
    -6 | -4
COC(=O)Cn1c(=O)c2c(nc3n(-c4cc(C)ccc4C)c(C)cn23)n(C)c1=O
    -1 | 6
Cc1ccccc1C1SCC(=O)N(CC(=O)NCC2CCCO2)c2c1c(-c1ccccc1)nn2-c1ccccc1Cl (stereo unspecified)
    21 | 25

# For convenience, part of the list above.
# Every second line gives: NPYLR7 agonist | NPYLR7 agonist max-min
CCOC(=O)c1[nH]ncc1CN1CCCC(Nc2ccccc2)C1 (stereo unspecified)
    3 | -1
CC(CC(F)(F)F)C(=O)N1CCC(n2c(Cc3ccccc3)nc3ccccc32)CC1 (stereo unspecified)
    5 | 0

# New compounds follow
# Every second line gives: NPYLR7 agonist | NPYLR7 agonist max-min
CC(CC(=O)c1cccc(F)c1)C(=O)N1CCC(CN(C)C)CC1 (stereo unspecified)
    -1 | 47
CC1CCc2ccccc2N1CCC(=O)NC1(C#N)CCOCC1 (stereo unspecified)
    9 | 9
CC(C)COc1nc(-c2cccc(F)c2)n(-c2cccc(NC(=O)Nc3cccc(Cl)c3)c2)n1
    15 | 19
O=C(Nc1cccc2ccccc12)N1CCCC1C(O)C(F)(F)F (stereo unspecified)
    9 | 3
Cc1c(CC(=O)NCc2ccon2)c2c(n1Cc1ccccc1F)CCCC2=O
    2 | 1
Oc1oc(-c2ccc(Cl)cc2)nc1C=Nc1ccc(Br)cn1
    6 | 5
Cc1nc2c(=O)n(CC(=O)Nc3ccccc3)nc(-c3ccco3)c2s1
    1 | -1
O=C(Cn1nc2c(c1NC(=O)CC(c1ccccc1)c1ccccc1)CSC2)NCC1CCCO1 (stereo unspecified)
    -5 | -3
CCNC(=O)C(C)NC(=O)NC(C)c1ccccc1C(F)(F)F (stereo unspecified)
    12 | 11
Cc1cc(OS(=O)(=O)c2c(C)noc2C)cc(C(C)C)c1
    6 | 3
Cc1cc(S(=O)(=O)ON2C(=O)c3ccccc3C2=O)ccc1F
    -9 | -13
Cc1cccc(Cn2c(NC3CCCCC3)nc3c2c(=O)n(C)c(=O)n3C)c1
    -17 | -16
CC(C)(C)C(=O)N1CCN(c2ncnc3c2nnn3-c2ccccc2)CC1
    -17 | -23
CC(C)(C)NCC(O)c1ccc(O)c(CO)c1 (stereo unspecified)
    7&12&30&4&1 | 4&4&30&-33&-27
Cc1nn(C(C)C)c(C)c1CN1CCN(c2ncc(F)cn2)CC1
    6 | 4
Cc1onc(-c2ccccc2)c1C(=O)NCCC(c1ccccc1)c1ccccc1
    5 | 2
O=C(NC1CC1)c1ccnc(-c2cccc3ccnn23)c1
    6 | 5
Cn1c(C2CCN(S(C)(=O)=O)CC2)nn(CC(=O)c2ccccc2)c1=O
    -5 | 2
COc1cccc(-c2cccc(NC(=O)C3CCCCN3C(=O)CCN3CCCC3=O)c2)c1 (stereo unspecified)
    3 | 1
Cc1ccc(-c2nnc(CN3CCC(Oc4ccncc4)CC3)o2)cc1
    4 | 4
CCC(C)NC(=O)C(C)NC(=O)c1ccc(Nc2ccncc2)cc1 (stereo unspecified)
    2 | 2
O=C(O)c1c[nH]n2ccnc12
    -11 | -20
CCCC(=O)Nc1cc(C(=O)N(CC)Cc2ccncc2)ccc1C
    12 | -2
NS(=O)(=O)c1ccc(CNc2ccc3ncc(-c4ccc(N5CCOCC5)cc4)n3n2)cc1
    1 | -5
Cc1ccc(CN(C)Cc2nc(CC3CC3)no2)o1
    -2 | -5
NC(=O)c1cc(S(=O)(=O)N2CCOCC2)ccc1Cl
    7 | 4
